Vaccinia Venus: qHTS for Stage-Specific Inhibitors of Vaccinia Orthopoxvirus: Venus Reporter Primary qHTS | Vaccinia virus Venus reporter expression, fluorescence | Potency, µM (titrated, usually from 36.5 µM), for inactives: at the top dose activity change, negative = inhibition, actives largely listed as inhibitors | hit rate 0.46% among 330,000 | AID 720580, 2013; active means well fitted inhibition curve with a large enough effect; inconclusive means small, poorly fitted or top-dose-only effect; inactive means no such curve, though single readings can be large or run the other way; tested in A549 cells; further: nearly all actives have a fitted effect of over 30% in size; inactives centre near -10
VACV mCherry inh: qHTS for Stage-Specific Inhibitors of Vaccinia Orthopoxvirus: mCherry Reporter Primary qHTS; Vaccinia virus mCherry reporter infection, fluorescence; about a quarter of the inactives have no number; Potency, µM (top dose mostly 36.5 µM), inactives show at the top dose activity change, negative = inhibition, actives largely listed as inhibitors; hit rate 0.63% among 310,000; active = well fitted inhibition curve with a large enough effect; inconclusive = small, poorly fitted or top-dose-only effect; inactive = no such curve, though single readings can be large or run the other way; tested in A549 cells; further: nearly all actives have a fitted effect of over 35% in size; inactives centre near -10
* = called active by the depositor; i = inactive; ? = inconclusive; nt = no result given; & = joins results of further samples; [ ] = dose if it differs, or a comment. On the % scale 0 is the no-effect control and ±100 the full control effect; potency means the concentration at half of the fitted maximal effect.

Values in the order – Vaccinia Venus | VACV mCherry inh
- CCOC(=O)C1CCCN(c2ccc([N+](=O)[O-])c3nonc23)C1 (configuration not stated)
    nt | -5%
- CCOC(=O)C(=Cc1ccccc1OC)C(=O)OCC
    -21% | -29%
- CCOC(=O)CN1C(=O)SC(Nc2ccc(C)cc2)C1=O (configuration not stated)
    -8% | -8%
- COc1ccccc1-n1c(/C=C/c2c(C)n(C)c3ccccc23)nc2ccccc2c1=O
    -7% | -24%
- O=C(NCCOc1ccccc1)C1CCC(=O)N(CCN2CCOCC2)C1 (configuration not stated)
    25%[7.34 µM] | 14%[7.34 µM]
- CN(c1ccc(F)cc1)S(=O)(=O)c1ccc(Cl)c(C(=O)NCC(c2ccco2)N2CCCCC2)c1 (configuration not stated)
    -27% | -16%
- CCOc1c2c(c(-c3ccc4c(c3)OCO4)c3cc(OC)c(OC)cc13)C(=O)OC2
    4µM* | ?
- CNC(C)Cc1ccccc1Sc1ccc(O)cc1 (configuration not stated)
    -18% | -24%
- COc1ccc(OC)c(NC(=O)COC(=O)c2ccc(S(=O)(=O)N3CCOCC3)cc2)c1
    22% | nt
- CS(=O)(=O)Nc1cccc(-c2nc(NCc3cccnc3)c3ccccc3n2)c1
    12% | 14%
- O=C(CSc1nc2c([nH]c3ccccc32)c(=O)n1-c1ccc(F)cc1)N1CCCc2ccccc21
    1% | -3%
- COc1ccc(OC)c(S(=O)(=O)N2CC=C(c3c(C)n(CC(=O)N4CCCC4)c4ccccc34)CC2)c1
    -7% | -24%
- COc1ccccc1NC(=O)CC(=O)c1cccc([N+](=O)[O-])c1
    -4% | -2%
- N#Cc1c2c(c[nH]c1=O)CCN2Cc1ccccc1
    8% | nt
- Cc1c(C(=O)Nc2ccc(F)cc2)cn2c(nc3ccccc32)c1C#N
    7% | 14%
- CCOC(=O)C1CCN(S(=O)(=O)c2cccc(C(=O)Nc3ccccc3)c2)CC1
    -21% | -5%
- Cc1ccc(C(=O)NC(=S)Nc2ccccc2C(F)(F)F)c(C)c1
    -3% | -10%
- CCOC(=O)/C(O)=C(\C#N)c1nc2ccccc2[nH]1
    4% | -5%
- CCOc1ccc(-c2cc3c(=O)n(Cc4nc(-c5cccc(OC)c5OC)oc4C)ccn3n2)cc1Cl
    -1% | -6%
- O=C(NN=Cc1ccc(F)c(F)c1)c1ccc(NS(=O)(=O)c2cccs2)cc1
    -5% | i

Continued.
Values in the order – Vaccinia Venus | VACV mCherry inh
- O=c1c2oc3ccccc3c2n(Cc2ccccc2)c(=O)n1Cc1ccco1
    -5% | -12%
- CCc1ccc(CNC(=O)C(CC)n2nc(C)c3c(C)n(-c4ccccc4)nc3c2=O)cc1 (configuration not stated)
    -23% | ?
- CC(C)Cn1c(-c2ccc(S(=O)(=O)N3CCOCC3)cc2)csc1=Nc1cc(Cl)ccc1Cl
    -13% | -15%
- O=C(NN1C(=O)/C(=C/c2ccc(O)cc2)SC1=S)c1ccccc1O
    nt | 33%[activator]
- O=C(CSc1ccccc1)NCc1ccc2c(c1)CCN2C(=O)c1ccc(F)cc1
    -9% | i
- COc1cccc(C(=O)N(Cc2nc(-c3ccc(Cl)cc3)no2)C(C)C)c1OC
    5% | 0%
- O=C(NCCc1c[nH]c2ccccc12)N[C@@H](Cc1ccccc1)C(=O)O
    0% | i
- O=Cc1ccsc1B(O)O
    -13% | -1%
- COc1ccc(CCC(=O)OCC(=O)Nc2sccc2C#N)cc1
    -2% | -17%
- CCCCN1C(=O)CC(Nc2ccc(CC)cc2)C1=O (configuration not stated)
    -5% | i
- CN1CCN(c2nc(Cl)ncc2F)CC1
    -18% | -6%
- Cc1cc(C)c(NC(=O)CCCN2CCN(C)CC2)c(C)c1
    -12% | nt
- O[C@H]1CN(Cc2cccs2)[C@@H](c2ccc(Cl)cc2)C[C@@H]1n1cc(C2CC2)nn1
    -4% | -12%
- O=C(NCCCN1CCCC1=O)C(=O)NCC1OCCCN1S(=O)(=O)c1ccccc1 (configuration not stated)
    -5% | 0%
- COc1ccc2c(CC(=O)Nc3ccc(OC)c(S(=O)(=O)N4CCOCC4)c3)coc2c1
    -12% | i
- COCCCN(C(=O)c1cc(-c2ccco2)nc2ccccc12)c1c(N)n(Cc2ccccc2)c(=O)[nH]c1=O
    -18% | i
- COc1ccc(CCNC(=O)CC(NS(=O)(=O)c2ccc(NC(C)=O)cc2)C(C)C)cc1OC (configuration not stated)
    -17% | -27%
- COC(=O)Cc1cc(OC)c(OC)cc1Cc1cc(OC)c(OC)cc1CC(=O)OC
    10% | -10%
- O=C(NNC1=NCCC1)c1cccc(Br)c1
    -7% | -6%
- Brc1ccc(C=Nc2ccc(Nc3ccccc3)cc2)s1
    -10% | i

The results go on:
Values in the order – Vaccinia Venus | VACV mCherry inh
- CSc1nc2c(c(=O)[nH]1)C(c1ccccc1)C1=C(CC(C)(C)CC1=O)N2 (configuration not stated)
    -3% | 5%
- Cc1ccccc1-n1ncc(C(C)NS(=O)(=O)c2sccc2C)c1C (configuration not stated)
    -1% | -12%
- CC(C)c1ccccc1NC(=O)Nc1nnc([C@@H]2C[C@H](O)[C@@H](CO)O2)s1
    -23% | -13%
- COc1ccc(/C=N/NC(=O)c2ccc(NC(=O)c3cccc([N+](=O)[O-])c3)cc2)c(C(=O)O)c1OC
    -16% | -18%
- COc1ccc(CN(C(=O)CCC(=O)N2CCCCC2)c2nccs2)cc1OC
    -10% | -9%
- Cc1ccc(S(=O)(=O)N2CCN(C(=O)COC(=O)CCOc3ccccc3C)CC2)c(C)c1
    -6% | -15%
- Cc1ccc(Nc2cc(=O)n(C)c(=O)[nH]2)cc1C
    -14% | -6%
- Cc1noc(C)c1NC(=O)N(C)C[C@H]1Oc2ccc(NC(=O)c3ccncc3)cc2C(=O)N([C@H](C)CO)C[C@@H]1C
    4% | i
- CC(C)NC(=O)N(C)C[C@@H]1Oc2ncc(-c3cccc(C#N)c3)cc2C(=O)N([C@H](C)CO)C[C@@H]1C
    -5% | i
- CCCCNC(=O)c1onc(CSc2ccc(Cl)cc2)c1C(=O)NCCCC
    -23% | -17%
- O=C1NC[C@@H](CCCCN2C[C@H](Cc3ccc(O)cc3)N(CCC3CCCCC3)C(=O)C2=O)N(Cc2ccccc2)C1=O
    -1% | -14%
- O=C(Nc1ccccc1NS(=O)(=O)c1ccc(F)cc1)C1CCC1
    -17% | -14%
- COc1ccc(NC(=O)c2c(C)noc2-c2snnc2C)cc1
    -18% | i
- COc1ccc(CNC(=O)C2=C(C)C(=O)OC23CCCCC3)cc1
    -9% | -11%
- COc1ccccc1CNc1nc(NCc2cccs2)nc2ccsc12
    -15% | -23%
- COc1ccc(NS(=O)(=O)c2ccc(O)c(NC(=O)c3ccc(S(=O)(=O)N4CCCC4)cc3)c2)cc1
    -9%[7.34 µM] | 0%[7.34 µM]
- CSc1ccc(CN2CCC(C)(Oc3ccccc3F)C2)cc1 (configuration not stated)
    -1% | i
- CCC1CN(C(=O)N2CCC(C(=O)NCCN(CC)CC)CC2)c2cc(C)ccc2O1 (configuration not stated)
    -4% | 8%
- O=C(O)CC(C(=O)NCc1ccccc1)C1CCCO1 (configuration not stated)
    -1% | -8%
- C/C=C(\NC(C)=O)c1ccccc1
    -11% | i

(next part)
Values in the order – Vaccinia Venus | VACV mCherry inh
- Cc1nc(-c2ccccc2)sc1C(=O)/C=C/c1ccc(Cl)cc1
    -5% | nt
- CCOC(CNC(=O)c1cc2c(=O)n(CC)c3ccccc3c2s1)OCC
    -14% | -12%
- Cn1ccnc1COc1ccc(C=O)cc1
    -2% | -11%
- Cc1ccn2c(NCc3ccccc3)c(-c3cccc(SC4CCCCC4)c3)nc2c1
    -14%&-1% | -5%&-5%
- CCOCCCN(Cc1ccco1)S(=O)(=O)c1cc2c(cc1C)NC(=O)CO2
    -6% | -7%
- CCOC(=O)c1ccc(S(=O)(=O)NCCN(CC)CC)cc1
    -15% | -15%
- Cc1cccc(-c2nn3c(=O)cc(CN4CCN(C(=O)c5ccccc5Br)CC4)nc3s2)c1
    -3% | -11%
- Cc1c(N=C2SCC(=O)N2c2c(C)n(C)n(-c3ccccc3)c2=O)c(=O)n(-c2ccccc2)n1C
    -9% | -13%
- O=C(COC(=O)CCS(=O)(=O)c1ccc(Cl)cc1)Nc1ncc(Cl)cc1Cl
    -16% | nt
- CNc1ccc(-c2nc(-c3ccncc3)no2)cc1[N+](=O)[O-]
    -5% | -16%
- CC1=NN(C(=O)c2ccc(C)o2)C(O)(c2ccccc2)C1 (configuration not stated)
    -6% | -10%
- Cc1[nH]c2ccccc2c1C(=O)CN1CCCCC1CCO (configuration not stated)
    2% | nt
- CCCSc1ccc([C@H]2N[C@@](CC(C)C)(C(=O)OC)[C@H]3C(=O)N(CC)C(=O)[C@@H]23)cc1
    -19% | i
- COc1ccc(F)cc1-c1cc(NC=O)c2ncc(-c3cccc(C(=O)N(C)C)c3)n2c1
    -27% | ?
- CCN(Cc1cc2ccccc2[nH]c1=O)C(=O)C(C)C
    ? | -16%
- CCOC(=O)c1cc(C(O)(C(F)(F)F)C(F)(F)F)c(/N=C/N(C)C)o1
    -17% | -7%
- O=C(O)C1CC(=O)N(Cc2ccc(F)cc2)C1 (configuration not stated)
    -15% | -17%
- CS(=O)(=O)N(CC(=O)N1CCCC1)c1cccc(C(F)(F)F)c1
    -11% | i
- O=C(COC(=O)c1ccccc1Cl)NCCC1=CCCCC1
    -9% | i
- Cc1ccc2c(/C=C/c3ccc(N(C)C)cc3)c(C)cnc2c1
    -7% | -1%

Next part
SMILES | Vaccinia Venus | VACV mCherry inh
COCC1CCCCN1C(=O)c1ccc2oc(CCc3ccccc3)nc2c1 (configuration not stated) | -20% | -3%
CCOc1ccc(-c2nnc(NC(=O)COc3ccccc3F)o2)cc1 | -10% | -9%
CC(NC(=O)COC(=O)c1cc([N+](=O)[O-])ccc1N1CCOCC1)c1ccc(F)cc1 (configuration not stated) | -3% | -5%
c1ccc(CN2CCN(Cc3cn4cccnc4n3)CC2)cc1 | 1% | i
C[C@@]12CCC=C[C@H]1[C@H](c1ccc(F)c(/C=C/c3ccccc3)c1)N(Cc1ccccc1)C2=O | -14% | -20%
Cc1cccc(/C=C/c2onc(C)c2S(=O)(=O)N2CCC(C(=O)NC(C)C)CC2)c1 | -3% | -15%
COc1ccc(CCNC(=O)COc2ccc([N+](=O)[O-])cc2)cc1 | -5% | -4%
CC(=O)N1C=CN(C(C)=O)C(c2cn(C)c3ccccc23)C1c1cn(C)c2ccccc12 (configuration not stated) | -20% | nt
CC(C)C[C@H](NC(=O)c1[nH]cnc1C(=O)N[C@@H](C)C(=O)OC(C)(C)C)C(=O)OC(C)(C)C | ? | ?
CCN(CC)CCCN1C(=O)C(=O)/C(=C(/O)c2cc(C)ccc2C)C1c1cccnc1 (configuration not stated) | -3% | -15%

(list continues)
SMILES | Vaccinia Venus | VACV mCherry inh
Cc1cccc(-c2noc(-c3ccccc3C(=O)NCC3CCCO3)n2)c1 (configuration not stated) | -9% | nt
CSc1ccc(Cl)c(C(=O)OCC(=O)N2CCOCC2)c1 | -11% | nt
O=C(CN1C(=O)NC2(CCCC2)C1=O)Nc1ccc(Cl)c(C(F)(F)F)c1 | -8% | -22%
O=S1(=O)N[C@H](Cc2ccccc2)COc2cc(N3CC[C@H](O)C3)ccc21 | 4% | 20%
O=[N+]([O-])c1cnc2ccccc2c1 | -9% | -12%
O=C(CN1CCCCCC1)NCc1ccccc1 | -12% | -2%
O=C(Cn1nc(C(F)(F)F)c2c1CCCC2)Nc1cccc(Cl)c1 | -6% | -4%
CC(C)C[C@H](NC(=O)c1nc[nH]c1C(=O)NCc1ccccc1)C(=O)OCc1ccccc1 | ? | i
Cc1nnc(SCC(=O)N2CCCCCC2)n(N)c1=O | -6% | 10%
Cc1ccc(NC(=O)Cn2nnnc2-c2ccccc2N)cc1 | -16% | -5%

Next part.
SMILES | Vaccinia Venus | VACV mCherry inh
COc1ccc(-n2nnnc2SCC(=O)Nc2cccc(NC(C)=O)c2)cc1OC | -6% | i
CCOC(=O)Nc1cc2c(c(N)n1)N=C(c1ccccc1)CN2 | ? | ?
COc1ccc(/C=C/C(=O)NCC2COc3ccccc3O2)cc1OC (configuration not stated) | -7% | -2%
CC(C)NC(=O)c1ccc(CONC(=O)OCc2ccccc2)cc1 | -9% | -13%
Cc1[nH]c2ccccc2c1/C=N/Nc1ccc([N+](=O)[O-])cc1 | -21% | ?
Cn1c(C(=O)N[C@@H](C(=O)O)c2ccccc2)cc2cc(F)ccc21 | -4% | i
CN=C(Nc1ccc(Cl)cc1)c1cccc(C(F)(F)F)c1 | -2% | i
CCCCCc1ccc(CC(=O)Nn2c(C)nc3ccccc3c2=O)cc1 | -25% | -30%
O=C(c1ccc([N+](=O)[O-])cc1)N1CCN(c2ncccn2)CC1 | -13% | -3%
OC(c1ccccc1)c1ncc(-c2cccc(F)c2)[nH]1 (configuration not stated) | -1% | -3%
CCC(=O)NC(c1cccc([N+](=O)[O-])c1)c1c(O)ccc2ccccc12 (configuration not stated) | -15% | -16%

Part of the list above in order of formula weight, lowest first.
SMILES | Vaccinia Venus | VACV mCherry inh
CN=C(Nc1ccc(Cl)cc1)c1cccc(C(F)(F)F)c1 | -2% | i
Cn1c(C(=O)N[C@@H](C(=O)O)c2ccccc2)cc2cc(F)ccc21 | -4% | i
CCC(=O)NC(c1cccc([N+](=O)[O-])c1)c1c(O)ccc2ccccc12 (configuration not stated) | -15% | -16%
COc1ccc(/C=C/C(=O)NCC2COc3ccccc3O2)cc1OC (configuration not stated) | -7% | -2%
CCCCCc1ccc(CC(=O)Nn2c(C)nc3ccccc3c2=O)cc1 | -25% | -30%

Screens as filed in PubChem.

Rows are unselected; about 0.88% have a hit in one of these screens.
